Bioassay records: PubChem BioAssay, Broad Institute
Ecoli rRNA inh – selective bacterial rRNA inhibition in E. coli. 350,000 compounds, 1.6% hits. GFP signal change (wild-type ribosome), % (no concentration beside the values). AID 720706. E. coli WT GFP vs humanized-ribosome RFP mutants, fluorescence, 24 h; hits give low values; DMSO median 0, no signal -100;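 active = significant combined selectivity score with lowered wild-type GFP, culture density cut under 30%, mutant RFP and density less affected; inactive = any of these conditions unmet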; note: one replicate is shown; some compounds called inactive have numbers as strong as hits
MLL AF4-AF9 inh – blocks AF4 peptide binding to human AF9. P42568. AlphaScreen, biotin-AF4 peptide binding to FLAG-AF9. inhibition, % at 10 µM. 350,000 compounds, 0.47% hits;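 active = every replicate reaching a set inhibition limit, whatever the replicate mean, cut at about 25% in these data; inconclusive = mean inhibition reaches that limit but some replicates miss it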;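 note: 0% = plate neutral control median and 100% = total signal loss; the record names both 10 and 1 µM as test concentration; the first replicate is given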
Target sequence (P42568 whole entry, looked up): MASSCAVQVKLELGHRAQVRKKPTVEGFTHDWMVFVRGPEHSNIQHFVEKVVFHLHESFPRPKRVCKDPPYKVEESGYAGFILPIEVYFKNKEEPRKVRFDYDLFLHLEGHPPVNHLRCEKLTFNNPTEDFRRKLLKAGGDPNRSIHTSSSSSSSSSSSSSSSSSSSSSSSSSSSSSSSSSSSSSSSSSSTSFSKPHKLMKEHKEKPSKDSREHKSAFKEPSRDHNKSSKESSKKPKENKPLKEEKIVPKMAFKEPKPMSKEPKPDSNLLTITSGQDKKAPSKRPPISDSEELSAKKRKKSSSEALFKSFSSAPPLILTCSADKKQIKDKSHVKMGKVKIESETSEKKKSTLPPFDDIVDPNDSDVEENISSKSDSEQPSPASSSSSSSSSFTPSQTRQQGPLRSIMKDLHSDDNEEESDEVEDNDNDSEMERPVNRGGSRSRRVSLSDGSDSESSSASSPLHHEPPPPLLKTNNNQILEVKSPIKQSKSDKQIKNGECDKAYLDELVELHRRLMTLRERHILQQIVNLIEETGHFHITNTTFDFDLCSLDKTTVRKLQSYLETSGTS
FGF22 binding – binders of recombinant human FGF22 by thermal shift; Q9HCT0; SYPRO orange fluorescence; percent of sucrose octasulfate shift, DMSO zero; calls only at 9.99 µM; 340,000 compounds, 1.5% hits; AID 651658;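 active = melting point raised past a set limit in the mean and every replicate; inconclusive = no clear call; three in four hits are not shown here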
Ecoli rRNA inh OD600 – further read-out of Ecoli rRNA inh, marked with its call; OD600 change, %; measured here: OD600 growth;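 optical density of the mix in the first replicate; 0 = DMSO median and -100 = no signal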
Ecoli rRNA inh RFP – also measured in Ecoli rRNA inh; calls as there; RFP signal change, %; measured here: RFP humanized mutant strains;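 first replicate; 0 = DMSO median and -100 = no signal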
* hit, by the source's call; i = inactive; ? = inconclusive; & = joins results of further samples. These rows are one share of the data (hit frequency here may not be typical).

Structure	Ecoli rRNA inh OD600	FGF22 binding	Ecoli rRNA inh RFP	Ecoli rRNA inh	MLL AF4-AF9 inh
c1ccc2oc(-c3ccc4c(c3)CNCc3cnnn3-4)cc2c1	16	i	-0.4	6	-2.6
COc1ccc(OC(=O)N(C)C[C@@H]2OCc3cnnn3CCCC(=O)N([C@H](C)CO)C[C@@H]2C)cc1	15&5	i	-0.1&1.4	1&-2	-0.8&0.7
C=CCNC(=S)N1Cc2cc(Br)ccc2-n2nncc2C1	-28	i	-2.3	3	-0.1
COc1cc2c3c(c1OC)Oc1ccc(cc1)C[C@H]1c4c(cc(OC)c(OC)c4Oc4ccc(cc4)C[C@@H]3N(C)CC2)CCN1C	14	i	-4.4	7	?
CCCCCC1(C(C)C)C(=O)NC(=S)NC1=O	-19	i	-1.6	7	-0.4
CCOC(=O)[C@]12Cc3c(cc(OC)c(OC)c3OC)[C@H]1N(CCC(=O)OC)C(=O)c1ccccc12	-32	i	-6.1	-37	-15
COC(=O)[C@H]1[C@H](CO)[C@H]2Cn3c(ccc(-c4ccc(F)cc4)c3=O)[C@@H]1N2Cc1ccccc1	-9	i	4.7	-5	1.5
O=C1C=CC(=O)C2C1C1(Cl)C(Cl)=C(Cl)C2(Cl)C1(Cl)Cl (stereo not given)	-78	i	-20	-59	13
CCCC#Cc1ccc([C@H]2[C@H](CO)N3CCCCN(C(=O)Cc4ccccn4)C[C@@H]23)cc1	-7	i	1.4	1	6.6
C[C@@H]1CN([C@H](C)CO)C(=O)CCCn2cc(nn2)CO[C@H]1CN(C)C(=O)Oc1ccc2ccccc2c1	-2	i	-0.5	0	0.2&0.0
CSCCC(c1nnnn1C1CCCC1)N1CCC2(CC1)C(=O)NCN2c1ccccc1 (stereo not given)	15	i	0.7	26	2.6
NC(Cc1ccccc1Cl)c1nn[nH]n1 (stereo not given)	3	i	-3.7	1	-0.9
O=C(O)[C@H]1[C@H](CO)[C@H]2Cn3c(ccc(-c4cncnc4)c3=O)[C@@H]1N2C(=O)NC1CCCC1	11	i	-0.4	2	-2.8
COc1ccc(-n2nnnc2C(c2ccccc2OC(F)(F)F)N2CCC(n3c(=O)[nH]c4ccccc43)CC2)cc1 (stereo not given)	7	i	0.5	17	2.1
O=C(Cc1cccnc1)N1CCCCN2[C@H](CO)[C@@H](c3ccc(/C=C/c4ccccc4)cc3)[C@H]2C1	-76	i	-11	-59	27*
COCC#Cc1ccc([C@@H]2[C@H]3CN(C(=O)Cc4ccccn4)CCCCN3[C@H]2CO)cc1	-3	i	-1.5	1	-7.7
COC(=O)[C@H]1[C@H](CO)[C@H]2Cn3c(ccc(-c4ccccc4F)c3=O)[C@@H]1N2C(=O)C1CC1	8	i	-1.9	3	-0.2
O=P(NC1CCCCC1)(Oc1ccccc1)Oc1ccccc1	-3	i	2.6	3	-0.2
Cc1ccccc1C(=O)N1Cc2cnnn2-c2ccccc2C1C#N (stereo not given)	-5	i	0.2	-3	-0.5
COC(=O)[C@H]1[C@H](CO)[C@H]2Cn3c(cccc3=O)[C@@H]1N2Cc1nccs1	0	i	-2.3	3	-0.9

Later entries:
Structure	Ecoli rRNA inh OD600	FGF22 binding	Ecoli rRNA inh RFP	Ecoli rRNA inh	MLL AF4-AF9 inh
C=CCC1(CCCCC)C(=O)NC(=S)NC1=O	-4	i	0.8	0	-3.3
O=C(Cc1cccnc1)N1CCCCN2[C@H](CO)[C@H](c3ccc(/C=C/c4ccccc4)cc3)[C@H]2C1	-28	i	0.5	-22	16
COc1ccc(-c2ccc3c(c2)CNCc2cnnn2-3)cc1	-3	i	-2.6	5	-0.4
CC12CCC(=O)C=C1C=CC1C2CCC2(C)C(O)CCC12 (stereo not given)	-52	i	9.3	-35	-1.1
c1ccc(C2c3ccccc3-n3nncc3CN2CC2CCCCC2)cc1 (stereo not given)	6	i	3.5	8	-5.4
CC(=O)C1CCC2C3CCC4CC(O)CCC4(C)C3CCC12C#N (stereo not given)	-15	i	0.3	-3	-3.0
O=C1c2ccccc2-n2nnc(-c3ccccc3)c2C2c3cc(Br)ccc3CCN12 (stereo not given)	17	i	1.4	10	0.7
O=c1[nH]c2ccccc2n1C1CCN(C(c2ccnc3ccccc23)c2nnnn2Cc2ccccc2)CC1 (stereo not given)	-15	i	2.3	-20	-0.3
O=C(NCC1=C(c2ccc3ccccc3c2)C[C@@H]2CC[C@H]1N2Cc1ccco1)c1cccs1	-32	i	-0.5	-11	23
O=c1[nH]c2ccccc2n1C1CCN(Cc2ccc(-c3nc4ccccc4nc3-c3ccccc3)cc2)CC1	-6	i	6.9	-2	2.4
C[C@]12CC[C@@H](O)CC1=CCC1C2CC[C@@]2(C)C1C[C@@H](F)[C@H]2O (stereo not given in full)	-53	i	-4.0	-37	6.5
COc1ccc(-c2ccc3n(c2=O)C[C@H]2[C@H](CO)[C@@H](C(=O)O)[C@@H]3N2C(=O)c2ccccc2F)cc1	7	i	-1.8	2	-1.8
C[C@]12CC[C@H](O)C[C@H]1CC[C@@H]1[C@@H]2CC[C@]2(C)C(=O)CC[C@@H]12	-22	i	-15	-32	11
ClCCN1CCSCC1	2	i	1.8	7	2.2
CCN1[C@@H]2c3ccc(-c4ccc(OC)cc4)c(=O)n3C[C@H]1[C@H](CO)[C@H]2C(=O)OC	8	i	-0.5	4	0.9
O=C(c1ccccc1)C(Cc1ccccc1)N1CCOCC1 (stereo not given)	-3	i	2.6	-2	-0.3
CCOC(=O)[C@]12Cc3cc(OC)ccc3[C@H]1N(C)C(=O)c1ccccc12	3	i	-3.0	0	-0.6
COC(=O)C1=C(C(=O)OC)C2OC1c1cc3ccccc3cc12	21*	i	10.0*	-19*	0.2
C=CC12CN(C)C3C4COC(CC41)C1(C(=O)Nc4ccccc41)C32 (stereo not given)	6	i	-4.3	-2	-1.5
COC(=O)C1=C(c2ccc(OCc3ccccc3)cc2)C[C@@H]2CC[C@H]1N2C(=O)NCc1ccccc1C(F)(F)F	3	i	-1.3	0	-4.1
